CBX7 inh = inhibitors of human CBX7 binding to H3K27me3 peptide; O95931; AlphaScreen His6-CBX7 / biotin-H3K27me3 peptide binding; stronger effect = lower value; normalised signal (fraction of DMSO) (concentration not given with the values); 66,000 tested, 1.1% active; AID 1224903; in the data active means normalised signal below about 0.5;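 further: 100 nL library stock added to about 20 µL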
Target sequence (O95931 whole entry, looked up): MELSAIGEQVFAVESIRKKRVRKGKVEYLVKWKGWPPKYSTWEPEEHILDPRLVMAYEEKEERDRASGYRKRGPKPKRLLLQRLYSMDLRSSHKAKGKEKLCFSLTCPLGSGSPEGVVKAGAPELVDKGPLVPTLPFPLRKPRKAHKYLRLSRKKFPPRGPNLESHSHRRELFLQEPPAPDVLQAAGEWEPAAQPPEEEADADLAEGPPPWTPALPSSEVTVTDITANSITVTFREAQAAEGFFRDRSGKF
CBX7 inh z-score = recorded beside CBX7 inh, whose call it bears; z-score; measured here: z-score of CBX7 signal; some inactives read as strong as hits; reference of the scale not given here;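 same signal on another scale; lower means less binding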
An asterisk follows results filed as active; & = joins results of further samples. An excerpt, so the mix of outcomes need not match the whole.

smiles | CBX7 inh | CBX7 inh z-score
Cc1onc(-c2ccccc2Cl)c1C(=O)Nc1cccc(Cl)c1 | 0.95 | -0.85
FC(F)(F)c1cc(-c2ccccc2)nc(NCC2CCCO2)n1 (stereo not drawn) | 1.4 | 4.6
CC(=O)Nc1ccc(NC(=O)c2c(-c3ccccc3Cl)noc2C)cc1 | 1.1 | 1.5
Cc1cc(C)nc(Nc2nc(C)c3cccc(C)c3n2)n1 | 1 | 0.05
CCCOc1ccc(C(=O)Nc2ccc3oc(-c4ccc(F)cc4Cl)nc3c2)cc1 | 1 | 0.2
Cc1ccccc1-n1nc2c(c1NC(=O)CCc1ccccc1)CS(=O)(=O)C2 | 1.2 | 1.1
COc1cc(C(=O)NCc2nnc(SCC(=O)Nc3cccc(Cl)c3)o2)cc(OC)c1OC | 0.84 | -2.4
COc1ccc(Nc2nc(-c3ccccc3)c3ccccc3n2)cc1 | 0.79 | -3.5
Cc1ccc(-n2nc3cc(C)c(NC(=O)c4cccnc4)cc3n2)cc1 | 0.9 | -1.1
C=CCSc1nnc(Cc2c(C)[nH]c3ccccc23)o1 | 0.95 | -1.3
C#CCN1C(=O)C(O)(CC(=O)c2ccc(Cl)cc2)c2ccccc21 (stereo not drawn) | 0.96 | -1.2
Cc1ccc(S(=O)(=O)c2cn(CC(=O)Nc3ccc(F)c(Cl)c3)c3ccc(C)cc3c2=O)cc1 | 0.95 | -0.67
O=C(NCc1cccnc1)c1ccc(CSc2nc3ccncc3n2Cc2ccc(F)cc2)cc1 | 1 | 0.46
COc1cc2ccccc2cc1C(=O)Nc1cc(-c2nc3ncccc3o2)ccc1C | 0.93 | -1.2
COC(=O)c1ccc2c(c1)N(Cc1cccc(C)c1)C(=O)c1ccccc1S2(=O)=O | 0.97 | -0.68
CCCNC(=O)Cn1cnc2sc(C(=O)Nc3ccc(Oc4ccccc4)cc3)c(C)c2c1=O | 1 | 0.2
COc1ccc(CN(C(=O)c2ccc(OCC(C)C)cc2)C2CCS(=O)(=O)C2)cc1 (stereo not drawn) | 0.96 | -1.4
CCOCCCN1C(=O)CN(C2CCCCCC2)C(=O)C1c1ccc(C)cc1 (stereo not drawn) | 0.99 | -0.18
CNc1oc(-c2ccc(Cl)cc2Cl)nc1S(=O)(=O)c1ccccc1 | 1 | 0.093
COc1ccc(Cl)cc1NC(=O)CC1Oc2ccc(C)cc2NC1=O (stereo not drawn) | 1.1 | 3.2
CC1CCN(S(=O)(=O)c2ccc3c(c2)N(CC(=O)NCCCc2ccccc2)C(=O)CO3)CC1 | 1 | 1.3
CCN1CCN(C(=O)C(C)N2C(=O)COc3ccc(C)cc32)CC1 (stereo not drawn) | 1 | 0.3
COc1cc(OC)cc(-c2nc3nc(C)c(CCC(=O)NCc4ccc5c(c4)OCO5)c(C)n3n2)c1 | 0.99 | -0.063
Cc1cc(NC(=O)c2cc3n(n2)C(C(F)(F)F)CC(c2ccc(Cl)cc2)N3)no1 (stereo not drawn) | 1 | 0.98
CCN(CC)S(=O)(=O)c1ccc2oc(C(=O)NCCc3ccc(Cl)cc3)c(C)c2c1 | 1.2 | 0.72
CCCSCCCNC(=O)c1csc2c1CCC(C)C2 (stereo not drawn) | 1 | 0.78
CC(C)c1ccc(NC(=O)C(c2ccccc2)N2CC(=O)Nc3ccccc32)cc1 (stereo not drawn) | 1.1 | 0.38
COC(=O)c1c(NC(=O)c2ccc(OCc3ccccc3Cl)c(OC)c2)sc(C)c1C | 1.2 | 2.8
CCOC(=O)c1nc(Nc2ccc(Br)cc2C)c2ccccc2n1 | 0.95 | -0.5
COc1ccc(CCNC2CC(=O)N(CCc3ccccc3)C2=O)cc1OC (stereo not drawn) | 0.98 | -0.18
COc1ccc(CCNC(=O)C2CCN(S(=O)(=O)c3cccc4cccnc34)CC2)cc1OC | 1 | 0.39
CCC1=Nc2cc(C(=O)NCCCN3CCOCC3)ccc2Sc2ccc(Br)cc21 | 0.93 | -3.6

3 of the entries above in order of the CBX7 inh z-score value, lowest first.
| structure | CBX7 inh z-score |
| --- | --- |
| CCC1=Nc2cc(C(=O)NCCCN3CCOCC3)ccc2Sc2ccc(Br)cc21 | -3.6 |
| CC(C)c1ccc(NC(=O)C(c2ccccc2)N2CC(=O)Nc3ccccc32)cc1 (stereo not drawn) | 0.38 |
| COc1ccc(CCNC(=O)C2CCN(S(=O)(=O)c3cccc4cccnc34)CC2)cc1OC | 0.39 |

The list goes on.
smiles | CBX7 inh | CBX7 inh z-score
O=C(O)c1cc2sccc2n1Cc1ccc(F)cc1 | 1 | 0.3
Cc1ccc(-c2cc(C(=O)NCCCN3CCOCC3)c3ccccc3n2)cc1C | 1.1 | 0.48
CCC(Cc1ccccc1)NC(=O)CN1C(=O)CC(C)(C)Sc2ccccc21 (stereo not drawn) | 0.95 | -1.3
O=C(c1ccccc1)c1cn(Cc2ccccc2)c2ccc(F)cc2c1=O | 0.83 | -0.6
Cc1ccc(-n2nc(-c3ccc(C(C)(C)C)cc3)cc2N)cc1 | 0.95 | -1.4
Cc1ccc(C(=O)c2oc3ccccc3c2NC(=O)COc2ccc(Cl)c(C)c2)cc1 | 1.2 | 0.81
Cc1ccnc2c(N3C(=O)C4C5c6ccccc6C(c6ccccc65)C4C3=O)cccc12 (stereo not drawn) | 1.1 | 0.78
Cc1nc2cc(-c3cccc(F)c3)nn2c(C)c1CCC(=O)N1CCCC1 | 1.1 | 1.7
O=C(Nc1ccc2oc(-c3cccnc3)nc2c1)C1CCCCC1 | 1 | 0.03
O=C(c1ccc2c(c1)N(Cc1ccc(F)cc1)C(=O)CS2)N1CCCC1 | 0.91 | -0.98
O=C(O)C(NS(=O)(=O)c1cccc2cccnc12)c1ccccc1 (stereo not drawn) | 1 | 0.46
CCN1CCCC1CNC(=O)CC1Oc2ccc(C)cc2NC1=O (stereo not drawn) | 0.96 | -1
CCOC(=O)c1cc(-c2ccccc2)n(-c2cccc(C(=O)NCc3cccs3)c2)c1C | 0.79 | -6.3
Cc1cccc(-c2nc(CN3CCCC(C(=O)NC4CC4)C3)c(C)o2)c1 (stereo not drawn) | 1 | 1.6
CCC(C)NC(=O)CSCc1nc(-c2ccc(OC)cc2)oc1C (stereo not drawn) | 0.97 | -0.54
Cc1ccc(-c2nc(Nc3ccccc3F)sc2C)cc1 | 0.86&0.94 | -3.5&-2.4
Nc1nonc1-c1nnnn1CC(=O)N1CCOCC1 | 0.9 | -1.2
Cc1ccc(SCc2cn3cccnc3n2)cc1 | 1.1 | 0.9
COCc1c(C(=O)O)nnn1-c1nonc1N | 0.99 | -0.086
Cc1oc(-c2ccccc2F)nc1CN1CCC(C(=O)NC2CCC(C)CC2)CC1 (stereo not drawn) | 1.2 | 2.3
Cc1ccc(-c2nnc(OCc3ccccc3)c3ccccc23)cc1S(=O)(=O)N(C)C | 0.99 | -0.15
Cc1cccc(CN2C(=O)c3ccccc3S(=O)(=O)c3ccc(C(=O)NC4CCCCC4)cc32)c1 | 0.91 | -2.2
CCN(CC)CCNC(=O)C1CCCN(c2nc3ccc(OC)cc3s2)C1 (stereo not drawn) | 1.4 | 4.9
CC(C)c1ccc(NC(=O)C2CCCN(C(=O)c3cnn(-c4ccccc4)c3-n3cccc3)C2)cc1 (stereo not drawn) | 0.94 | -3
COc1ccccc1Nc1ncc(C(=O)N2CCN(c3ccccc3F)CC2)c2ccccc12 | 1.3 | 13
COCCNC(=O)c1nc(-c2cccc(OC)c2)oc1C | 0.9 | -1.2
NC(=O)c1ccccc1NC(=O)c1ccccc1CCc1ccccc1 | 1 | -0.14
Cc1ccc(Cn2ccc(NC(=O)c3cc(-c4ccc(Cl)c(Cl)c4)on3)n2)cc1 | 1.1 | 3.6
COc1cccc(CNC(=O)Cn2nc(-c3ccc(Cl)cc3)ccc2=O)c1 | 0.99 | -0.32
COc1ccc(NC(=O)c2sc3ncn(CC(=O)N4CCCCC4)c(=O)c3c2C)c(OC)c1 | 1.1 | 0.6
CCCN(CCC)S(=O)(=O)c1ccc(C(=O)Nc2nc3c(OCC)cccc3s2)cc1 | 1 | 0.05
O=C(CCSc1ccccc1)Nc1ccccc1-c1nc2ccccc2[nH]1 | 1 | 0.28
CCn1ccnc1C(O)(c1ccccc1)c1ccc(C)cc1 (stereo not drawn) | 1.1 | 1.7
COc1cccc(NS(=O)(=O)c2ccc3c(c2)CC(C)N3C(C)=O)c1 (stereo not drawn) | 1 | 2.4
COc1ccc(-n2nc(C(=O)NCC(=O)Nc3ccc(C)c(F)c3)c3ccccc3c2=O)cc1OC | 0.95 | -1
CCOC(=O)N1CCC(NC(=O)C2CCN(c3nnc(-n4cccc4)s3)CC2)CC1 | 0.86 | -2.2
O=C(Cn1ncc2ccsc2c1=O)N1CCN(c2ccc(Cl)cc2)CC1 | 1 | -0.16
COc1cc(OC)cc(C(=O)Nc2cc(-c3nc4cc(C(C)C)ccc4o3)ccc2Cl)c1 | 0.96 | -0.13
CCOC(=O)c1cnc2ccc(OC)cc2c1NC1CCCCC1 | 1.2 | 2.6
CCOC(=O)C1CCN(C(=O)CCC(=O)Nc2ccc3nc(N4CCOCC4)cc(C)c3c2)CC1 | 0.97 | -0.72
CC(Cc1ccccc1)NC(=O)C1(c2ccccc2)CCOCC1 (stereo not drawn) | 1 | -0.015
CC1c2nc3ccccc3n2C(CC(=O)Nc2cc(F)ccc2F)C(=O)N1Cc1ccccc1 (stereo not drawn) | 1.1 | 3.2
O=C(O)CSc1nc(-c2ccccc2)cs1 | 1.1 | 2.2
CCOc1ccc(NC(=O)CNC(=O)Cn2c(C)cc3ccccc3c2=O)cc1 | 1.1 | 0.87
COc1ccc(Cc2nnc(NC(=O)Nc3ccc(Cl)cc3)s2)cc1OC | 1.1 | 2.4
COc1ccc(-c2cc(C(=O)NCC(C)C)no2)cc1 | 1.4 | 2.6
CCOc1ccc2nc(N3CCC(C(=O)NCc4cccc(OC)c4OC)CC3)sc2c1 | 1 | 0.4
COc1cccc(NS(=O)(=O)c2ccc3[nH]cc(C(=O)N(C)Cc4ccccc4)c(=O)c3c2)c1 | 0.83 | -2.2

Arranged by count of non-hydrogen atoms (rising): some entries from above.
smiles | CBX7 inh | CBX7 inh z-score
O=C(O)CSc1nc(-c2ccccc2)cs1 | 1.1 | 2.2
CC(Cc1ccccc1)NC(=O)C1(c2ccccc2)CCOCC1 (stereo not drawn) | 1 | -0.015
CCOc1ccc2nc(N3CCC(C(=O)NCc4cccc(OC)c4OC)CC3)sc2c1 | 1 | 0.4
COc1cccc(NS(=O)(=O)c2ccc3[nH]cc(C(=O)N(C)Cc4ccccc4)c(=O)c3c2)c1 | 0.83 | -2.2

Remaining list, next part:
smiles | CBX7 inh | CBX7 inh z-score
Cc1ccc(-c2nnc(Cc3ccc(Cl)cc3)o2)cc1 | 1 | 0.82
COc1cc(C2C(N3C(=O)c4ccccc4C3=O)C(=O)N2c2ccc(C)cc2)cc(OC)c1OC (stereo not drawn) | 0.8 | -5.6
O=C(Nc1ccccc1)c1cc(S(=O)(=O)N2CCOCC2)cs1 | 0.93 | -1.3
O=C(c1nn2c(C(F)(F)F)cc(-c3cccs3)nc2c1Br)N1CCCC1 | 1.1 | 2.6
O=C(NCCCN1CCOCC1)c1cc(Nc2ccccc2)nc2ccccc12 | 1.1 | 2.6
COc1ccc(C2(CNC(=O)c3ccccc3Cl)CCOCC2)cc1 | 0.81 | -2.1
Cc1ccccc1-c1nc(CS(=O)(=O)CC(=O)NCCN2CCOCC2)c(C)o1 | 0.95 | -1.3
O=C(NCCN1CCOCC1)c1ccc2c(c1)N(Cc1ccccc1Cl)C(=O)c1ccccc1S2 | 1 | 1.2
COc1ccc(OC)c(C2CC(c3ccc(C)cc3)Nc3ncnn32)c1 (stereo not drawn) | 0.96 | -1.2
CCC(C)NC(=O)c1cc(=O)[nH]c2ccc(S(=O)(=O)N3CCCC(C)C3)cc12 (stereo not drawn) | 1.1 | 2.3
O=C(Nc1ccccc1)Nc1ccc2c(c1)nc1n2CCN(Cc2ccccc2)C1 | 1 | 1.5
CCN(CC)c1cc(C)c2cc(NC(=O)C(C)Oc3ccc(Cl)cc3Cl)ccc2n1 (stereo not drawn) | 1.5 | 5.2
C=CCn1c(C(C)NC(=O)c2cccc(C)c2)nc2ccccc21 (stereo not drawn) | 1.1 | 0.85
Cc1ccc(N(C)C(=O)c2ccc(CNc3c(N4CCC(C)CC4)c(=O)c3=O)cc2)cc1 | 0.97 | -1.3
Cc1ccc(NC(=O)c2cc(-c3cccs3)nc3ccccc23)c(C)c1 | 0.95 | -0.21
COc1ccc(OCC(=O)Nc2ccc3c(c2)nc2n3CCN(Cc3ccccc3)C2)cc1 | 1 | 0.46
CCc1ccc(Nc2nnc(Cc3ccncc3)c3ccccc23)cc1 | 0.93 | -1.6
CC(C)(C)c1nnc(Nc2ccc3c(c2)OCO3)[nH]c1=O | 1.3 | 0.66
COc1ccc2c(c1)CCc1c(C(=O)NCCN3CCOCC3)noc1-2 | 1.1 | 0.46
CCOC(=O)N1CCC(NC(=O)CCc2c(C)nc3c(-c4ccccc4)c(C)nn3c2C)CC1 | 1.1 | 1.7
Cc1nc2c(-c3ccccc3)c(C)nn2c(C)c1CCC(=O)NCCCOC(C)C | 1.1 | 1.3
Cc1ccn2c(NC(=O)c3ccc(C)c(C)c3)c(-c3cccs3)nc2c1 | 0.98 | -0.039
CCCCn1c(-c2ccc(OC)cc2)nc2ccccc21 | 0.79 | -2
COc1ccc(OC)c2[nH]c(=O)c(CCNS(=O)(=O)c3ccccc3)cc12 | 1.1 | 2.6
Cc1cc(Nc2ccc3[nH]c(=O)[nH]c3c2)n2c(nc3ccccc32)c1C#N | 1.1 | 0.8
CCOC(=O)c1c(NC(=O)c2c(OC)cccc2OC)sc2c1CCCC2 | 0.99 | -0.38
O=C(C1CCC1)N1CCc2cc(S(=O)(=O)N3CC=C(c4ccccc4)CC3)ccc21 | 0.98 | -0.61

Reprinted at random: 2 records from the list, in no set order.
smiles | CBX7 inh | CBX7 inh z-score
CCOC(=O)c1c(NC(=O)c2c(OC)cccc2OC)sc2c1CCCC2 | 0.99 | -0.38
Cc1ccn2c(NC(=O)c3ccc(C)c(C)c3)c(-c3cccs3)nc2c1 | 0.98 | -0.039
